NPYLR7 agonist: mosquito NPYLR7 agonism; HEK293T NPYLR7/Galpha15, GCaMP6s calcium fluorescence; activation, % at 10 µM; 0.15% of 270,000 active; AID 1259423; in the data active = activation above about 40%;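 note: 0% = vehicle and 100% = reference agonist at the receptor; some compounds past the cut are filed as inactive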
NPYLR7 agonist max-min: also measured in NPYLR7 agonist; calls as there; activation, %; measured here: Max-Min RFU normalised activation; some inactives read as strong as hits;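 span of the calcium signal over five minutes; 0% = vehicle and 100% = native peptide agonist; compound fluorescence can raise it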
Starred values were filed as active, the others as inactive; & = joins results of further samples. These rows are one share of the data; count on the stated rates, not on these rows.

SMILES | NPYLR7 agonist | NPYLR7 agonist max-min
COc1cc(OC)cc(-c2nnc(SCc3ccccc3C#N)n2C2CCCCC2)c1 | 4 | 6
Cc1cccc(NC(=O)C2CSCN2C(=O)c2occc2C)c1 (stereo unspecified) | 7 | 1
CN(Cc1ccccc1O)C(=O)CCn1c(=O)oc2ccccc21 | -1 | -2
COc1ccc(NC(=O)C2(C)CCN2Cc2ccc3ccccc3c2)cc1OC (stereo unspecified) | 2 | 0
Cc1nn(C)c(C)c1CN(C(=O)Cn1nnnc1CN1CCC(C)CC1)C1CC1 | 22 | 13
Cc1ccc(N2CCC(N3CCn4cncc4C3)CC2)cc1Cl | 10 | 8
Cc1nnc(SCC(=O)NCCc2csc(-c3cccnc3)n2)s1 | -1 | -8
CCCN1CCC(C(=O)NC(c2ccccc2C)c2ncccc2C)CC1 (stereo unspecified) | 12 | 5
CCOC(=O)c1sc(NN=C(C#N)C#N)c(C(=O)OCC)c1C | 0 | -1
CCOC(=O)c1c(C)[nH]c(C(=O)CSC2CCCCC2)c1C | 1 | -1
C=CCn1c(CN2CCCC(N3CCCC3=O)C2)nc2ccccc21 (stereo unspecified) | 5 | 0
O=C1NNN(c2ccccc2)C1=CN(C1CC1)C1CCS(=O)(=O)C1 (stereo unspecified) | 0 | 5
COC(=O)C1=C(C)N=c2s/c(=C/c3ccco3)c(=O)n2C1c1ccccc1 (stereo unspecified) | 2 | -4
CCOC(=O)C(c1ccc(Br)cc1F)N1CCN(CCO)C(=O)C1 (stereo unspecified) | -4 | -5
COCCn1c(C)cc(O)c(C(c2ccc(C)cc2)N2CCCCC2)c1=O (stereo unspecified) | 12 | 4
CC1Oc2ccccc2OC1C(=O)N=c1sccn1C (stereo unspecified) | 4 | 3
COc1ccc(NC(=O)CN(c2cccc([N+](=O)[O-])c2)S(=O)(=O)c2ccccc2)cc1 | -7 | -13
CCOC(=O)C1(Cc2ccccc2)CCN(Cc2nc3ccccc3nc2C)CC1 | 2 | 0
COc1ccc(C(C)C)cc1CN1CCN(C(=O)CO[C@H]2C[C@@H](C)CC[C@@H]2C(C)C)CC1 | -7 | -13
CC(=O)N[C@@H]1c2ccccc2C2(CCN(Cc3nc4ccccc4n3C)CC2)[C@H]1OCc1ccccc1 | 9 | 2
O=C(c1ccc[nH]c1=S)N1CCN(CCOc2ccccc2Cl)CC1 | -1 | 0
CCc1nc(C)c(C(=O)NCc2cc3cc(OC)ccc3[nH]2)o1 | 17 | 0
Cc1nn(CC(=O)N2CCCCC2C)c(C)c1S(=O)(=O)NC(C)(C)C (stereo unspecified) | 7 | 10
CN(C(=O)Cn1c2ccccc2c(=O)c2ccccc21)c1ccnn1C | -6 | -3
O=C(NC(C(=O)NC1CC1)C1CCN(C(=O)c2ccc(Cl)cc2)CC1)c1ccc(F)cc1 (stereo unspecified) | -1 | -1
COc1cc(C(=O)NCCc2nc(C)c(C)s2)ccn1 | -9 | -12
COc1ccc(C(NC(=O)CN2CCc3ccccc32)C2CC2)cc1 (stereo unspecified) | 7 | 6
Cc1ccccc1-c1noc(CNCCCc2c(C)noc2C)n1 | 14 | 6
COc1cc(/C=C(/C#N)c2nc3cc(Cl)ccc3s2)ccc1O | 102* | 95*
C=CCNC(=O)C(NC(=O)c1cccc(C)c1)C1CCN(C(=O)c2ccc(F)cc2)CC1 (stereo unspecified) | -4 | -7
C#CCCN1CCN(C(=O)c2cc(OC)ccc2Br)CC1 | 12 | 11
CCc1ccccc1NC(=O)Nc1ccc(Nc2cc(-n3cccn3)ncn2)cc1 | -11 | -15
CCN1CCC(NCc2cccnc2N2CCN(c3ccccn3)CC2)CC1 | 5 | 1
Cc1ccc2c(C(=O)NCc3c(C)n[nH]c3C)cc(C)nc2c1 | 3 | -10
COc1cccc(-c2cc(C(=O)NCCN3CCOCC3)n3nc(-c4ccccc4)cc3n2)c1 | -12 | -7
CC(=O)N[C@H]1C[C@@H](c2ccccc2-c2ccccc2)O[C@@H](C(C)C)C1 | 22 | 7

20 neighbouring records from above:
SMILES | NPYLR7 agonist | NPYLR7 agonist max-min
CCOC(=O)C(c1ccc(Br)cc1F)N1CCN(CCO)C(=O)C1 (stereo unspecified) | -4 | -5
COCCn1c(C)cc(O)c(C(c2ccc(C)cc2)N2CCCCC2)c1=O (stereo unspecified) | 12 | 4
CC1Oc2ccccc2OC1C(=O)N=c1sccn1C (stereo unspecified) | 4 | 3
COc1ccc(NC(=O)CN(c2cccc([N+](=O)[O-])c2)S(=O)(=O)c2ccccc2)cc1 | -7 | -13
CCOC(=O)C1(Cc2ccccc2)CCN(Cc2nc3ccccc3nc2C)CC1 | 2 | 0
COc1ccc(C(C)C)cc1CN1CCN(C(=O)CO[C@H]2C[C@@H](C)CC[C@@H]2C(C)C)CC1 | -7 | -13
CC(=O)N[C@@H]1c2ccccc2C2(CCN(Cc3nc4ccccc4n3C)CC2)[C@H]1OCc1ccccc1 | 9 | 2
O=C(c1ccc[nH]c1=S)N1CCN(CCOc2ccccc2Cl)CC1 | -1 | 0
CCc1nc(C)c(C(=O)NCc2cc3cc(OC)ccc3[nH]2)o1 | 17 | 0
Cc1nn(CC(=O)N2CCCCC2C)c(C)c1S(=O)(=O)NC(C)(C)C (stereo unspecified) | 7 | 10
CN(C(=O)Cn1c2ccccc2c(=O)c2ccccc21)c1ccnn1C | -6 | -3
O=C(NC(C(=O)NC1CC1)C1CCN(C(=O)c2ccc(Cl)cc2)CC1)c1ccc(F)cc1 (stereo unspecified) | -1 | -1
COc1cc(C(=O)NCCc2nc(C)c(C)s2)ccn1 | -9 | -12
COc1ccc(C(NC(=O)CN2CCc3ccccc32)C2CC2)cc1 (stereo unspecified) | 7 | 6
Cc1ccccc1-c1noc(CNCCCc2c(C)noc2C)n1 | 14 | 6
COc1cc(/C=C(/C#N)c2nc3cc(Cl)ccc3s2)ccc1O | 102* | 95*
C=CCNC(=O)C(NC(=O)c1cccc(C)c1)C1CCN(C(=O)c2ccc(F)cc2)CC1 (stereo unspecified) | -4 | -7
C#CCCN1CCN(C(=O)c2cc(OC)ccc2Br)CC1 | 12 | 11
CCc1ccccc1NC(=O)Nc1ccc(Nc2cc(-n3cccn3)ncn2)cc1 | -11 | -15
CCN1CCC(NCc2cccnc2N2CCN(c3ccccn3)CC2)CC1 | 5 | 1

The list continues.
SMILES | NPYLR7 agonist | NPYLR7 agonist max-min
COC(=O)Cc1cc(=O)[nH]c(N=C(N)Nc2ccc(C)cc2)n1 | 5 | 6
CCc1ccsc1CNC(=O)c1sccc1Br | 0 | -4
CC(C)(Oc1ccc(CCNC(=O)c2ccc(Cl)cc2)cc1)C(=O)N1CCN(C(=O)Cc2ccccc2)CC1 | -4 | -11
COc1ccc(CN2C(=O)N(CC(C)C)C3(CCN(C4Cc5ccccc5C4)CC3)C2=O)cc1 | 11 | 0
Cc1cc(C)c(S(=O)(=O)NC2CC(C)(C)NC(C)(C)C2)cc1Br | 1 | 7
COc1ccc(CCNC(=O)CSc2nc(Cl)cc(N3CCN(C(=O)c4ccc(F)cc4)C(C)C3)n2)cc1OC (stereo unspecified) | -4 | 9
CCCCc1nc(N2CCN(C(=O)c3ccccc3Br)CC2)c2c(-c3ccc4ccccc4c3)noc2n1 | 16 | 4
CCCCOc1ccc(C(=O)N2CCC3(CC2)C(=O)N(CC(=O)NCCc2ccc(Cl)cc2Cl)CN3c2ccccc2)cc1 | 5 | 11
O=C(c1cccc(Br)c1)N1CCSC1c1ccccc1OCc1ccccc1 (stereo unspecified) | 11 | 18
CCN(CC1CCCN(CCc2cccc(F)c2)C1)C(=O)c1ccc(OC)cc1 (stereo unspecified) | 1 | -6
CCC1(C)Cc2c(sc3nc(SC)n4c(C)nnc4c23)CO1 (stereo unspecified) | 20 | 17
CC(=O)c1oc2ccccc2c1NC(=O)CSc1nnc(-c2ccco2)n1C | 1 | 4
Cc1ccc(F)cc1NC(=O)N1CCC(C2OCCO2)CC1 | -1 | -5
O=C(NCCN1CCOCC1)c1cnn2c1NC(c1ccco1)CC2C(F)(F)F (stereo unspecified) | 0 | -7
Cc1cc2c(SCC(=O)N3[C@@H]4CC[C@H]3CNC(=O)C4)ncnc2s1 | -9 | -15
CC(C)CNc1ccc2c(n1)C(=O)N([C@H](C)C(=O)Nc1cccc(N(C)C)c1)C2 | 5 | 3
Cc1cc(C(=O)N2C[C@H](Oc3ccccn3)[C@H]3C[C@@H]2Cc2c3n(C)c3ccccc23)c(C)o1 | 16 | 14
COc1ccc(CCN(C)c2cc(C(C)(C)C)nc(SCc3cccc(C(=O)NCc4ccco4)c3)n2)cc1OC | -4 | -4
O=C1NC(C(=O)N2CCc3ccccc32)CSC1Cc1ccccc1F (stereo unspecified) | 2 | 2
CCN(Cc1c(CO)cnc(C)c1O)CC1CCCO1 (stereo unspecified) | 7 | 3
CN(Cc1ccsc1)C(=O)COc1cccc2cccnc12 | 20 | 15
CCOC(=O)C1=C(C)NC(C)=C(C(=O)OCC)C1C(=O)OCC(=O)N1CC(C)OC(C)C1 (stereo unspecified) | 1 | 0
Cc1ccc(C(=O)Nc2ccc(N3CCN(C(=O)NCCc4ccccc4F)CC3)nc2)cc1 | 5 | -7
CSCC[C@@H](CO)Nc1nc(C2CCCC2)nc2c1cnn2C | -1 | 16
CCC(CO)NC(=O)Nc1ccc(F)cc1C#N (stereo unspecified) | 10 | 9
O=C(OCc1cn2cc(Cl)ccc2n1)C12CC3CC(CC(O)(C3)C1)C2 | 7 | 2
CSc1ccc(NC(=O)N(CC(=O)N(Cc2ccc3c(c2)OCO3)Cc2cccs2)CC(C)C)cc1 | -9 | -15
CCOC(=O)c1c(N)sc(C(=O)Nc2ccccc2C(F)(F)F)c1C | -11 | -19
CNC(=O)c1ccc(-c2cc(NCCO)nc3[nH]ccc23)s1 | 3 | 3
O=C(O)C12CC3CC(C1)CC(C(=O)O)(C3)C2 | -3 | -2
CC(C)(C)c1cc(NC(=O)CN(Cc2ccccc2)C(=O)c2cccc(C(F)(F)F)c2)n(-c2ccccc2Cl)n1 | -2 | -8
COc1ccccc1C1SCC(=O)N1CCC(=O)NCc1ccncc1 (stereo unspecified) | 1 | 0
Cc1nc(N2CCCC2C(=O)NCc2cccs2)nc2cc(S(C)(=O)=O)ccc12 (stereo unspecified) | 14 | 4
CN1CCN([C@H]2CN(Cc3ccc(-n4cncn4)cc3)C[C@@H]2O)CC1 | 3 | -2
CN(Cc1ccncn1)C(=O)C1CCC(=O)N(CCCc2ccccc2)C1 (stereo unspecified) | 3 | 2
Cn1nc(C2CC2)cc1NC(=O)C1(C)CCN1C(=O)C/C=C/c1ccccc1 (stereo unspecified) | 15 | 15
O=C(Nc1cccc(C(F)(F)F)c1)Nc1ccc(N2CCCCC2)c(C(=O)NCC2CCCO2)c1 (stereo unspecified) | -11 | -10
COc1ccc2cc(C(N)=O)c(=Nc3cccc(F)c3)oc2c1 | -4 | -9
O=C(CN1C2=NCCN2c2ccccc21)c1ccc2c(c1)OCO2 | 8 | 3
CC(=O)C=C1N(C)c2cc([N+](=O)[O-])c(N)cc2C1(C)C | -15 | -21
O=C(Nc1ccc2c(c1)OCO2)N1CC[C@H](CO)[C@@H](O)C1 | -1 | -5
CCOc1ccc(NC(=O)N(CC(=O)N(Cc2ccc3c(c2)OCO3)Cc2cccs2)C(C)C)cc1 | 18 | 26
COCCn1c(SC(C)C(=O)N(C)C)nnc1-c1cccc(C)c1 (stereo unspecified) | -4 | -3
COc1ccc(C(=O)NC(=NCCN2CCCCC2)OC(C)C)cc1 | 14 | 15
Cc1cccc(-c2ccc(NC(=O)C3CCN(C(=O)CCc4ccncc4)CC3)cc2)c1 | 5&4 | 0&4
NS(=O)(=O)c1ccc(NC(=O)c2cccnc2Oc2cccc(C(F)(F)F)c2)cc1 | -5 | -9
COc1cc(C2CC(c3ccccc3)=Nc3ncnn32)ccc1OCc1ccccc1 (stereo unspecified) | 0 | 5
O=C(c1cc(-c2cccs2)nn1-c1cccc(Cl)c1)N1CCN(C/C=C/c2ccccc2)CC1 | 24 | 21
COC(=O)C1CCN(Cc2nnc(C(=O)NCc3ccc(C)cc3)s2)CC1 | 1 | -3
COc1cccc(-n2nc(C(=O)Nc3ccccc3)c(=O)n(Cc3ccccc3Cl)c2=O)c1 | 1 | 5
Cc1cc(C(=O)N(Cc2cccnc2)c2nc3ccc(F)cc3s2)on1 | 6 | 6
CCN(CCc1nc2ccc(C)cc2[nH]1)C(=O)c1c[nH]c2c(C)cccc2c1=O | 11 | -2
CCOCCCN1COc2ccc3c(=O)c(Oc4cccc(OC)c4)c(C)oc3c2C1 | -8 | -12
O=C(CCl)Nc1ccc(Cl)cc1[N+](=O)[O-] | -1 | -6

Compound activity (PubChem)
